Compound activity (PubChem BioAssay)
gsp antagonist = qHTS for Antagonists of gsp, the Etiologic Mutation Responsible for Fibrous Dysplasia/McCune-Albright Syndrome: qHTS. AID 624288, 2012. gsp-mutant cells, cAMP HTRF, 30 min; control for the full effect not named in the record. 340,000 compounds, 0.4% hits. Potency, µM (top dose mostly 76.9 µM), inactives show at the highest dose activity change, negative = inhibition, actives largely listed as inhibitors; active = falling curve of any shape with a large fitted effect; inconclusive = falling curve, mostly with a smaller effect; inactive = flat or rising curve; cell line not stated here;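 also: intracellular cAMP measured with PDE inhibitor Ro 20-1724 present during compound exposure; potency is read from the fitted curve at half-maximal effect; % is scaled to controls: 0 for no effect and ±100 for the full control effect; nearly all actives have a fitted effect of over 65% in size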
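Cells in G418 medium, seeded 16-24 h, 37C; buffer exchange to DPBS + 1 mM CaCl2, 0.5 mM MgCl2, 0.05% BSA; cpds in DMSO + […] (300 uM stock), 30 min 37C; HTRF cAMP detection.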
Sfp PPTase inh = qHTS Assay for Inhibitors of Bacillus subtilis Sfp phosphopantetheinyl transferase (PPTase); Potency, µM, inactives show max response, negative = inhibition, actives largely listed as inhibitors; 4'-phosphopantetheinyl transferase ffp (Bacillus subtilis), Q9F4F7; AID 1490, 2009; Biochemical Sfp PPTase activity, qHTS; 310,000 compounds, 3.5% hits; active = well fitted inhibition curve with a large enough effect; inconclusive = small, poorly fitted or top-dose-only effect, or another doubt; inactive = no such curve, though single readings can be large or run the other way;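 also: the enzyme is Sfp with the accession as filed and its product quenches rhodamine fluorescence; potency is read from the fitted curve at half-maximal effect; 0% = enzyme reaction without inhibitor and -100% = no enzyme wells; top concentration of the series not given in the record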
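Compounds were incubated with enzyme (final 15 nM) for 15 min at room temperature before substrate addition started the reaction. Fluorescence at 525 nm excitation, 598 nm emission was recorded immediately and after 30 minutes.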
TRPV1 PAM = HTS Assay for Compounds that Act as Potentiators of the Vanilloid Receptor 1; Transient receptor potential cation channel subfamily V member 1 (Homo sapiens), Q8NER1; 320,000 compounds, 0.02% hits; TRPV1-expressing cells, Fluo-8 calcium influx, capsaicin EC20 potentiation; host cell line not named in the record; control for the full effect not named in the record; potentiation, % at 8.33 µM; active means potentiation above 80%; inconclusive means 30% to 80%; inactive means below 30%; also: 0% is about no effect
Target sequence (Q8NER1 whole entry, looked up): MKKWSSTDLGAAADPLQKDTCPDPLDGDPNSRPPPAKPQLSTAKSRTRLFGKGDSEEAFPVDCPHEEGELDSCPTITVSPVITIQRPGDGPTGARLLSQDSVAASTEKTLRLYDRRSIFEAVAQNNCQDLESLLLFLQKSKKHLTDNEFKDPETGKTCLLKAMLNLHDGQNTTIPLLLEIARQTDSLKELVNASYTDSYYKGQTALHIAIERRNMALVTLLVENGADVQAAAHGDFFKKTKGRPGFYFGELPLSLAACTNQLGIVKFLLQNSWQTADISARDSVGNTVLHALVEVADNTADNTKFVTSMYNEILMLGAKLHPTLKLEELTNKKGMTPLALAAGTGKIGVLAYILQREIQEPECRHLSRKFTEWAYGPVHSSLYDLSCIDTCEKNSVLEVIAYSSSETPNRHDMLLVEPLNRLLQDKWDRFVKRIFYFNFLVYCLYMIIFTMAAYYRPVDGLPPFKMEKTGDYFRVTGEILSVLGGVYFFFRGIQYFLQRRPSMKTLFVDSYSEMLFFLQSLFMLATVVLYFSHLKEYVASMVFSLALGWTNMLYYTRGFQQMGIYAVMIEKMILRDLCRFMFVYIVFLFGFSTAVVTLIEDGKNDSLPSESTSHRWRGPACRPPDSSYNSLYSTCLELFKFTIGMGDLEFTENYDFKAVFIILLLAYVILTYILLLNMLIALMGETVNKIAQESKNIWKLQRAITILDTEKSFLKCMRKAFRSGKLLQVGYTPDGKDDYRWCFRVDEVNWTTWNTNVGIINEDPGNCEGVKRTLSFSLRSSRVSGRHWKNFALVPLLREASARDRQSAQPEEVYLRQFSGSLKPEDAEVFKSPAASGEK
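Cells expressing TRPV1 were dye-loaded with Fluo-8 and read kinetically: 10 s baseline, 3 min after compound (agonist portion), then 2 min after EC20 capsaicin (allosteric enhancer portion). Calcium-bound dye fluorescence at 480/520 nm.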
gsp agonist = qHTS for Agonist of gsp, the Etiologic Mutation Responsible for Fibrous Dysplasia/McCune-Albright Syndrome: qHTS; gsp mutant cells, cAMP HTRF, 30 min; control for the full effect not named in the record; Potency, µM (top dose mostly 76.9 µM), inactives show at the highest dose activation (cAMP increase), usual class: activators; 340,000 compounds, 0.13% hits; active = well fitted activation curve with a large enough effect; inconclusive = small, poorly fitted or top-dose-only effect, or another doubt; inactive = no such curve, though single readings can be large or run the other way; cell line not stated here;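 also: phosphodiesterase inhibitor Ro 20-1724 added with compounds to block cAMP breakdown; potency is read from the fitted curve at half-maximal effect; nearly all actives have a fitted effect of over 60% in size; about a fifth of the inactives were tested at one dose only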
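Cells stably selected in G418 were plated at 2000/well, grown 16-24 hr, then given compounds in DMSO with the PDE inhibitor […] (300 uM solution added) for 30 min at 37C; cAMP was read by HTRF.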
ClpP mod = qHTS Assay for Activators of ClpP; ATP-dependent Clp protease proteolytic subunit (Bacillus subtilis (strain 168)), P80244; purified B. subtilis ClpP, FRET peptide cleavage, 20 min; Potency, µM (doses to about 57.5 µM), for inactives: at the highest dose activity change, negative = active; 340,000 compounds, 1.9% hits; AID 651965, 2013; active = well fitted falling curve with a large enough effect; inconclusive = small, poorly fitted or top-dose-only effect; inactive = no such curve, though single readings can be large or run the other way; also: potency is read from the fitted curve at half-maximal effect; the source files actives as falling curves though it sought activators and does not explain the sign; nearly all actives have a fitted effect of over 65% in size; many hits overshoot -100%
Target sequence (P80244 whole entry, looked up): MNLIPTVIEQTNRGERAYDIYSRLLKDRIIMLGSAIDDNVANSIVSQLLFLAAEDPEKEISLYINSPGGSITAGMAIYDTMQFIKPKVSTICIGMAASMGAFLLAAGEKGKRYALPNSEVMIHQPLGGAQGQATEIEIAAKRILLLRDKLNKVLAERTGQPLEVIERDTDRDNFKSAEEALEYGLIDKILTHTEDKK
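Buffer: 100 mM Tris/HCl pH8, 100 mM KCl, 0.05% low protease BSA, 2.5% glycerol, 0.01% Tween-20. ClpP 10 microg/mL final; 20 min RT; delta FRET normalized to ADEP and DMSO controls.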
Menin MLL FP FL = qHTS Assay for Inhibitors Targeting the Menin-MLL Interaction in MLL Related Leukemias: Competition With Fluorescein Labeled MLL-derived Peptide; Fluorescence polarization, fluorescein-MLL peptide displacement from menin; FP activity change, % at 61.4 µM; 290,000 tested, under 10 active; AID 1766, 2009; inconclusive = falling polarisation curve, or a change in total fluorescence; inactive = total fluorescence flat and polarisation flat or rising; no compound was filed as active; the % refers to the polarisation; negative = inhibition;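 also: % of control where 0% means no effect; inhibitors lower the polarisation; unlabelled MLL peptide was the positive control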
TRPML1 blocker = qHTS for Inhibitors of the Human Mucolipin Transient Receptor Potential 1 (TRPML1); Mucolipin-1 (Homo sapiens), Q9GZU1; TRPML1-inducible cells, Ca2+ dye fluorescence, FDSS; active compounds read low; inhibition of EC80 agonist-evoked calcium signal; activity change, negative = inhibition, % (test concentration not listed); 390,000 compounds, 0.02% hits; AID 624415, 2012; in the data active means activity change below about -50%; inconclusive means about -30% to -50%; inactive means above about -30%;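 also: stimulus is agonist 54-4 at its EC80 concentration; % is scaled to controls: 0 for no effect and ±100 for the full control effect; compound concentration not given in the record; the text of the record puts the active cut at -80%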
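Tet-induced TRPML1-DL cells loaded with Ca8 no-wash calcium dye were read kinetically on FDSS. Compound addition was followed by EC80 agonist 54-4 (4 uM final); inhibition was read over 110 s.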
The depositor's hits bear a star; ? = inconclusive; . = not tested or not shown; & = joins results of further samples; [ ] = another dose, or the depositor's remark.

SMILES	gsp antagonist	Sfp PPTase inh	TRPV1 PAM	gsp agonist	ClpP mod	Menin MLL FP FL	TRPML1 blocker
COc1ccccc1NC(=O)C1=C(C)NC(=O)NC1c1cc(C)cs1 (stereo not drawn)	10%	9%	2	-2%[15.4 µM]	1.1%	2.0	-15
Cc1ccc(Oc2nnc(-c3cccs3)c3ccccc23)cc1	-7%	-24%	14	-5%	0.4%	0.7	-4
Cc1ccc(N2C(=O)C(Cl)=C(Nc3c(C)n(C)n(-c4ccccc4)c3=O)C2=O)cc1	4%	?	6	-1%	-1.1%	-0.9	15
COc1ccc(NS(=O)(=O)c2cccc(C(=O)NNC(=O)c3cccn3C)c2)cc1	-4%	13%	4	1%	-0.6%	.	2
O=c1cc(CN2CCN(c3ccccc3)CC2)c2c(ccc3ccccc32)o1	5%[15.4 µM]	1%	16	-19%	1.9%	9.0	12
Brc1ccc([C@H]2CN3CCSC3=N2)cc1	-7%	.	.	.	1.5%	-0.6	3
CCOc1ccc(NC(=O)C(C)O)c(NS(=O)(=O)c2ccc(CCNC(C)=O)cc2)c1 (stereo not drawn)	4%	6%	-14	0%	1.1%	1.4	1
COc1ccc(Cc2nnc(NC(=O)c3cccc([N+](=O)[O-])c3C)s2)cc1	-9%	2%	-13	-15%	-0.1%	2.4	17
O=C(O)c1ccccc1C(=O)c1ccc2c(c1)N(Cc1cccc(F)c1)C(=O)CO2	-20%	7%	7	?	.	1.4	-7
CCCn1c(-c2ccncc2)n[nH]c1=S	-3%	?	-1	2%[15.4 µM]	-0.8%	2.8	38
O=c1cc(O)c2ccccc2n1Cc1ccccc1F	-1%	-2%	-2	1%[15.4 µM]	.	.	-8
O=C(COC(=O)CC1CC2CCC1C2)NC(=O)NCc1ccco1 (stereo not drawn)	-7%	?	17	-3%	-2.1%	2.1	-4

Two neighbouring records out of the list so far:
SMILES	gsp antagonist	Sfp PPTase inh	TRPV1 PAM	gsp agonist	ClpP mod	Menin MLL FP FL	TRPML1 blocker
COc1ccccc1NC(=O)C1=C(C)NC(=O)NC1c1cc(C)cs1 (stereo not drawn)	10%	9%	2	-2%[15.4 µM]	1.1%	2.0	-15
Cc1ccc(Oc2nnc(-c3cccs3)c3ccccc23)cc1	-7%	-24%	14	-5%	0.4%	0.7	-4

Remaining list, next part
SMILES	gsp antagonist	Sfp PPTase inh	TRPV1 PAM	gsp agonist	ClpP mod	Menin MLL FP FL	TRPML1 blocker
COc1ccccc1/C=C/C(=O)OCC(=O)N1CCCCC1	9%	.	.	-21%	?	.	18
CCn1cc(C(=O)Nc2ccc(C(=O)N3CCCC3)cc2)c(=O)c2ccc(C)nc21	.	10%	6	.	.	6.2	.
CC(=O)NC1C(=O)N=C(SCc2ccccc2)NC1=O (stereo not drawn)	-11%	9%	0	-2%	1.2%	3.6	-5
Cc1cccc(NC(=O)c2ccc(F)c(S(=O)(=O)NCc3ccco3)c2)c1	-12%	-6%	13	-10%	0.1%	.	-11
Cc1ccc(C(=O)NC2(C(F)(F)F)N=C3SCCN3C2=O)cc1 (stereo not drawn)	6%	12%	-4	7%	2.1%	-2.9	-6
CCC1CSC(=Nc2ccc(C)cc2)N1C(=O)CN1C(=O)NC2(CCCC2)C1=O (stereo not drawn)	-10%	0%	-2	-10%	0.2%	-2.2	6
CC(=O)/C(=N/Nc1ccccc1)N1CCOCC1	11%	2%	-8	-54%[inhibitor]	0.1%	-0.8	4
COc1ccccc1-c1nc(C(F)(F)F)c(OC)o1	3%	0%	-6	-3%	?	1.2	28
C=CCOc1ccc2c(OC)c3ccoc3nc2c1OC	-4%	8%	-7	-6%	22µM*	6.1	-25
O=C(Nc1nccs1)c1ccc(NC(=O)c2ccco2)cc1	-3%	4%	-1	18%	-4.4%	0.8	-10
C/C(CC(=O)Nc1ccc([N+](=O)[O-])cc1)=N/NC(=O)C1C2CCCCC21 (stereo not drawn)	-4%	8%	4	-9%[15.4 µM]	.	-1.5	38
O=C(CC1SC(N2CCOCC2)=NC1=O)Nc1ccc(Cl)c(C(F)(F)F)c1 (stereo not drawn)	-1%	.	.	26%	-3.0%	.	-19
CC(=O)c1cccc(NC(=O)c2ccc(N(C)S(=O)(=O)c3ccc(C)cc3)cc2)c1	?	4%	-10	25%	-5.1%	.	32
O=C(Cc1ccc(Br)cc1)OCC(=O)N1CCc2ccccc2C1	10%	14%	-11	-16%[15.4 µM]	0.7%	1.0	-18
CN1CCN(S(=O)(=O)c2cccc(C(=O)Nc3ccc(Br)cc3Br)c2)CC1	0%	.	.	2%	-2.4%	.	13
CC(C)(C)c1ccc(Cn2nc(CC(=O)O)c3ccccc3c2=O)cc1	.	1%	?	-3%[15.4 µM]	.	-1.4	-14
COc1ccc(CNC(=O)COc2cc3c(c4oc(=O)cc(C)c24)CCC(C)(C)O3)cc1OC	11%	9%	5	.	4.8%	-1.6	.
CC(C)Cn1c(Cc2ccccc2)n[nH]c1=S	-8%	8%	-11	-24%	0.0%	-4.8	-5
COc1ccc(OCC(=O)Nc2cc(S(=O)(=O)N3CCCCC3)ccc2OC)cc1	-2%	.	2	-10%[15.4 µM]	0.7%	.	4
CCOC(=O)C1CCCN(C(=O)Cc2ccc(C)cc2)C1 (stereo not drawn)	6%	9%	-5	-5%	0.6%	5.6	-6
O=C(CC(c1ccccc1)c1ccccc1)NCCOCc1ccccc1	-7%	-4%	-3	-73%[inhibitor]	.	-0.9	2
COc1cc(/C=C/C(=O)O)ccc1OS(=O)(=O)c1cc(C)ccc1C	?	6%	-9	-21%[15.4 µM]	.	0.6	10
O=C(/C=C/c1cccc(Br)c1)NC1CCN(Cc2ccccc2)CC1	-4%	-9%	5	1%[15.4 µM]	.	-7.9	2
COc1cc2c(cc1OC)CN(C(=S)Nc1ccc(C)cc1C)CC2	6%	13%	-10	13%	-4.5%	-2.4	9
COc1ccc(CCNC(=O)c2ccc(OCc3c(C)noc3C)c(OC)c2)cc1	-1%	.	.	14%[15.4 µM]	-2.2%	.	0
O=C(COC(=O)CCC(=O)c1cccs1)Nc1ccccc1C(F)(F)F	-6%	.	.	2%	-4.0%	.	-9
O=C(Oc1ccc(Br)cc1)C1CCN(C2=NS(=O)(=O)c3ccccc32)CC1	-18%	.	15	-9%	-4.0%	.	2
O=C(CCCn1cncn1)N1CCCC(Nc2ccc(F)cc2)C1 (stereo not drawn)	8%	12%	2	-6%	-3.8%	.	-13
CCC(C)[C@H]1COCCS(=O)(=O)N1Cc1ccc(Cl)cc1Cl (stereo partly drawn)	-4%	2%	-10	?	-2.7%&-0.8%	-3.8	78
O=C(c1ccco1)N1CCN(S(=O)(=O)Cc2ccc(Cl)cc2)CC1	-7%	3%	2	-18%	-1.4%	2.2	-10
CCOC(=O)c1[nH]c2ccccc2c1NC(=O)CCN1CC(C)OC(C)C1 (stereo not drawn)	-2%	14%	-6	-53%[inhibitor]	-22%	0.7	-10
COc1ccc(N2CCN(C(CNC(=O)COc3ccccc3)c3ccco3)CC2)cc1 (stereo not drawn)	3%	.	-10	-51%	-5.9%	.	-27
CC(=O)c1c(C)[nH]c(C(=O)OCc2ccc([N+](=O)[O-])cc2)c1C	-2%	12%	0	1%	.	-1.9	-15
Cc1ccc(OCC(=O)NNC(=O)c2cc(C)[nH]n2)cc1	0%	14%	-5	22%	-5.2%	2.2	4
O=C(N/C(=C/c1cccc(Br)c1)c1nc(=S)[nH][nH]1)c1ccccc1	8%	-5%	-3	-1%[15.4 µM]	-0.6%	-0.3	12
CC(C)CC(=O)NC(=S)Nc1cccc(NC(=O)c2ccccc2)c1	-5%	10%	2	?	1.1%	1.8	-18
N#CCCn1nnc2ccccc21	13%	11%	.	26%	2.6%	2.2	12
Cc1nc2ccc(NC(=O)c3ccc4ccccc4n3)cc2s1	8%	8%	28	-4%[15.4 µM]	.	-4.4	4
COc1cc2c(cc1NC(=O)CSc1nc3ccccc3[nH]1)oc1ccccc12	-21%	-8%	12	?	-5.0%	-0.1	-10
C#CCONC(=O)c1cc(OCC(F)(F)F)ccc1OCC(F)(F)F	4%	12%	-6	-8%	0.3%	-0.7	8
Cc1ccc(OCC(=O)Nc2sc3c(c2C#N)CCC3)cc1C	9%	-22%	9	-11%	-0.7%	10	-14
CC(C)(C)c1ccc(C(=O)NC(=O)COC(=O)c2ccco2)cc1	8%	.	12	-6%[15.4 µM]	.	.	-2
COc1cccc(CN2CCN(Cc3nc(-c4cccs4)oc3C)CC2CCO)c1 (stereo not drawn)	-5%	-6%	3	-22%	-15%	-0.7	1
Cc1nonc1NC(=O)c1ccccc1Br	-3%	3%	25	-4%	-0.7%	0.7	9
CC1CCCCC1NC(=O)COC(=O)COc1ccccc1Cl (stereo not drawn)	-3%	5%	4	-3%[15.4 µM]	1.1%	-2.4	10
Cc1ccc(N(C(=O)c2csnn2)C(C(=O)NC2CCCCC2)c2ccncc2)c(C)c1 (stereo not drawn)	-18%	21%	18	-9%[15.4 µM]	.	0.8	32
COc1ccc(/C=C/C(=O)OCC(=O)NCc2ccco2)cc1OC	5%	19%	4	-8%[15.4 µM]	-2.0%	.	15
O=C1OC(/C=C/c2ccccc2)=NC/1=C/c1ccco1	-3%	12%	4	8%[15.4 µM]	-1.2%	4.0	-10
COc1ccc(NC(=S)N2CCN(c3ccccc3)CC2)c(OC)c1	1%	13%	2	-18%	.	-5.3	21
Cn1c(Cl)cnc1C1CC(=O)c2cc(Cl)ccc2O1 (stereo not drawn)	28%	?	-7	7%[15.4 µM]	3.9%	3.8	-7
CC1=NN(C(=O)c2ccc(Cn3cc([N+](=O)[O-])cn3)cc2)C(O)(C(F)(F)F)C1 (stereo not drawn)	12%	0%	-10	7%	2.8%	6.3	17
